Autofluor counter: flagged as autofluorescent in microsphere protease counterscreen. compound autofluorescence counterscreen, microsphere flow cytometry; active compounds read high. fluorescence intensity (test concentration not listed). 360,000 compounds, 3.1% hits;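 active means at least 3 SD above the mean of all compounds, about 16000 in these data; inconclusive means too few beads counted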;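 further: 100 nL of 1 mM stock went into each well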
Mtb hypoxia rep: reduces hypoxia-regulated biosensor signal in M. tuberculosis; M. tuberculosis hypoxia-regulated fluorescent reporter, fluorescence; fluorescence inhibition, % (concentration not given with the values); 300,000 compounds, 0.1% hits; AID 1159583;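 active means 35 to 45% if threefold the growth effect, above 45% if 1.5-fold the growth effect; inactive means the rest, general growth blockers included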;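 further: wells of about 50 µL received 100 nL stock; 0% = vehicle wells and 100% = reference inhibitor wells; whole bacteria with a GFP reporter of the hypoxia response; strong numbers were not always called active; many hits fall short of the cut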
BJeLR viability: kills HRASV12-expressing BJeLR cells. BJeLR (HRASV12) viability, CellTiter-Glo ATP luminescence, 48 h; reference of the scale not given here. inhibition, % (no concentration beside the values). 300,000 compounds, 0.17% hits;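 active means replicate mean above 50%; inconclusive means above 50% but judged a plate artefact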;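 further: 50 nL library stock added to about 25 µL; numbers are from one replicate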
PrP 5UTR inh: suppresses PrP 5' UTR mRNA reporter expression | inhibition, % (concentration not given with the values) | 340,000 compounds, 0.35% hits | AID 488862 | cell-based PrP 5' UTR mRNA reporter, plate reader;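 active means every replicate at 50% or more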;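 further: 0 = median of the neutral control wells; tested in H4 reporter cells; numbers are from one replicate; inactives centre near -14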
Sa ugtP lethal: compounds lethal to S. aureus RN4220 ugtP deletion mutant; OD600 growth, 16 h; some inactives read as strong as hits; growth inhibition, % (concentration not given with the values); 330,000 compounds, 0.54% hits; AID 1259309;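 active means z-score under -3 and OD600 up to 0.15 on both plates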;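 further: plate controls were untreated wells for no effect and antibiotic for full effect; wells of about 80 µL received 100 nL stock; the first replicate is given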
Sa RN4220 lethal: kills Staphylococcus aureus RN4220; S. aureus RN4220 growth, OD600, 16 h; inhibition, % (test concentration not listed); 330,000 compounds, 0.33% hits;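 active means z-score of -3 or lower and OD600 up to 0.18 on both plates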;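 further: plate controls were untreated cells for no effect and reference antibiotic for full effect; stock transfer was 100 nL into about 80 µL; one replicate is shown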
Mtb hypoxia rep growth: second read-out of Mtb hypoxia rep, no call of its own (marks repeat the call); growth inhibition, %; measured here: M. tuberculosis growth (absorbance);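 0% = vehicle and 100% = reference antibiotic; read after six days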
* hit, by the source's call; u = inconclusive; x = no result given. Not a hit list (roughly 3.9% active in at least one column).

SMILES	Autofluor counter	Mtb hypoxia rep	Mtb hypoxia rep growth	BJeLR viability	PrP 5UTR inh	Sa ugtP lethal	Sa RN4220 lethal
Cc1ccc(SCCN2CCN(CC(C)C)CCC2=O)cc1	4133	1	3	-10	-28	1	3.3
COC(=O)c1cc(NC(=S)NCc2ccc(Cl)cc2)cc(C(=O)OC)c1	2111	13	5	-12	-21	-27	-15
CN(C)c1cccc(C(=O)OCC(=O)N(C)c2ccccc2)c1	5134	3	-2	-12	0	5	-2.7
O=C(CN(Cc1ccc(F)cc1)C(=O)CNS(=O)(=O)c1ccc(F)cc1)NCc1ccco1	4010	8	3	-6	-17	3	0.9
Cc1cccc(C)c1NC(=O)CNC(=O)CCC(=O)N1CCOCC1	5699	-8	-7	3	-7	5	3.1
COc1ccc(CCNC(=O)c2cc3c(=O)n4ccccc4nc3n(CCN3CCOCC3)c2=N)cc1	6168	9	5	7	-12	3	-0.4
Cc1cc2ncn(N=Cc3ccc([N+](=O)[O-])o3)c2cc1C	x	9	3	x	x	101*	100*
CCc1ccc(OCC(=O)O/N=C(\N)c2ccncc2)c(Br)c1	u	1	1	-3	-55	7	4.1
COC(=O)c1c(C)nc(C)c(C(=O)OC)c1-c1ccsc1	x	10	12	-12	x	14	5.6
COC(=O)c1sccc1NC(=O)Nc1ccccc1C	5106	-7	-6	x	-19	5	2.7
COc1ccc(O)c(/C=N/NC(=O)CN2CCS(=O)(=O)CC2)c1	6054	x	x	-1	-45	x	x
CCN(CC)C(=O)c1ccc2c(=O)n(Cc3cccc(Br)c3)c(=S)[nH]c2c1	x	14	3	-2	x	39	-11
O=C(NCc1nc2ccccc2[nH]1)C1=C[C@@H](c2ccc(C(F)(F)F)cc2)C[C@@H](OCCCCO)O1	3986	x	x	9	-5	x	x
O=C(Cn1nnc(-c2ccccc2)n1)N/N=C/c1cc([N+](=O)[O-])c(Cl)cc1Cl	2114	x	x	-3	-9	x	x
Cc1cccn2cc(-c3cc4ccccc4oc3=O)nc12	4419	-12	-1	6	-10	2	0.4
COC(=O)Cc1cc(=O)[nH]c(/N=C(\N)Nc2ccc(C)cc2C)n1	3049	x	x	0	-12	x	x
COc1ccccc1OCCNC(=O)CNC(=O)c1ccc2c(c1)OCO2	x	0	-5	-3	1	4	1.9
Cc1c(C)c2c(C)nn(-c3ccccc3)c2[nH]c1=O	5243	8	10	-1	-16	-5	4.7
O=C(CCNC(=O)C1CCN(S(=O)(=O)c2ccc(F)cc2)CC1)Nc1nccs1	4327	-11	-11	6	-4	1	-1.0
O=C(NN=Cc1ccncc1)c1cc2ccccc2o1	x	-1	-1	x	x	-14	0.6

Looked up above:
`O=C(CCNC(=O)C1CCN(S(=O)(=O)c2ccc(F)cc2)CC1)Nc1nccs1` | Mtb hypoxia rep growth: -11
`O=C(NCc1nc2ccccc2[nH]1)C1=C[C@@H](c2ccc(C(F)(F)F)cc2)C[C@@H](OCCCCO)O1` | BJeLR viability: 9

Carrying on:
SMILES	Autofluor counter	Mtb hypoxia rep	Mtb hypoxia rep growth	BJeLR viability	PrP 5UTR inh	Sa ugtP lethal	Sa RN4220 lethal
CC(CCc1ccccc1)NC(=S)NC1CCCCC1 (centres undefined)	4847	-5	-4	-4	-15	-6	-4.1
CCN1CCN(c2ccc(N3CCN(S(=O)(=O)c4cc([N+](=O)[O-])ccc4C)CC3)nn2)CC1	x	-2	-7	5	-22	-4	-0.9
Cc1ccc(S(=O)(=O)C2(C(=O)Nc3ccc(F)cc3)CC2)cc1	2690	x	x	2	-19	-6	2.0
COCCNC(=O)CSc1nc2nn(-c3ccccc3)c(=O)c-2c2n1CCCCC2	4852	6	-7	-9	-21	9	6.1
Cn1cc(C=C2C(=O)CC(C)(C)CC2=O)c2ccccc21	2407	13	-5	4	-13	3	-1.4
CC(C)(C)c1ccc(C(=O)NCCOc2ccccc2)cc1	3662	8	6	-3	24	7	2.7
COc1ccc(/C=c2/sc3n(c2=O)NC2(c4ccccc4)N(C)C(=O)N(C)C2(c2ccccc2)N=3)cc1 (centres undefined)	2790	x	x	-2	7	x	x
COc1ccc(/C=C(\C#N)C(=O)N2COCC2(C)C)cc1	4064	17	4	-8	-7	12	3.7
O=C(c1ccc(-c2ccccc2)cc1)C1CCCN(Cc2ccncc2)C1 (centres undefined)	6232	-10	1	14	-8	64	9.4
O=C(NC1C/C(=N/O)c2cc3c(cc21)OCO3)C(F)(F)F (centres undefined)	4397	x	x	1	-25	x	x
COc1ccc(CNC(=O)CCC(=O)N2CCN(C(C)=O)CC2)cc1	14278	3	-5	1	-18	-2	-2.9
Cc1ccc2c(c1)N(C(=O)CCC(=O)NCc1cccnc1)CCO2	5228	-1	4	0	-9	1	4.3
O=C1COc2ccc(S(=O)(=O)N3CCC(C(=O)NCc4ccccc4)CC3)cc2N1	5265	1	8	8	-6	-5	-3.1
C=CCSc1nc2ccccc2n1C(=O)/C=C/c1cc(OC)c(OC)c(OC)c1	11348	13	15	41	-33	-1	9.5
COc1ccc(OC)c(NC(=O)CCN2CCN(c3ccccc3F)CC2)c1	4236	7	15	-3	-9	1	5.9
CCOc1cc(NC(=O)c2ccco2)c(OCC)cc1NC(=O)c1ccco1	5556	-2	10	-6	-6	-2	8.9
COc1ccc(CCNC(=O)CCSc2nc(-c3ccco3)cc(C(F)(F)F)n2)cc1	2620	7	8	-10	11	12	5.2
N#CC1(NC(=O)CSc2nc3ccc([N+](=O)[O-])cc3s2)CCCCC1	5542	-4	4	7	3	4	-1.1
CCn1c(C)c(Br)c(=O)c(C(=O)OC)c1-c1ccc(Cl)cc1	3472	5	11	-3	18	3	2.0
Cn1cc(CN2CCC(N3CCNC(=O)CC3)CC2)c(-c2ccccc2F)n1	3222	-5	-5	7	7	1	2.4
CC(C)(C)NC(=O)/C(=C\c1ccco1)NC(=O)c1ccco1	3840	0	1	-5	-11	16	-0.8
CN(Cc1c(C(=O)NN=Cc2ccc(O)cc2)nnn1-c1nonc1N)c1ccccc1	x	-4	5	x	x	0	2.5
CC(C)c1onc(C(=O)NCc2ccccc2)c1[N+](=O)[O-]	2110	7	1	-8	-21	4	6.8
O=Cc1cn(CC(=O)N2CCc3ccccc32)c2ccccc12	4032	-9	-4	11	-20	9	4.2
Cc1ccc(C(=O)NNC(=O)C2CCN(C(=O)OC(C)(C)C)CC2)cc1	5358	-4	5	5	-3	-2	-0.7
Cc1cccc2cc3c(N)c(C(=O)Nc4ccc(N5CCOCC5)cc4)sc3nc12	9410	9	5	4	-21	57	15
Cc1cc(-c2cc(C)c(N)cc2C)c(C)cc1N	2986	25	8	x	-24	2	0.0
CCCNC(=O)COC(=O)c1ccccc1OCc1ccc(Cl)cc1	4247	2	5	-1	-3	7	1.4
Cc1cc(C)c2c(C)c(C(=O)NCc3ccc(S(N)(=O)=O)cc3)oc2c1	3706	9	10	1	-12	-10	6.7
O=C(Cc1ccccc1)NC1c2ccccc2-c2ccccc21	2447	5	-6	-1	-17	7	19
COC(=O)/C(=N/Nc1ccccc1)N1CCCc2ccccc21	7516	x	x	3	-3	x	x
CCN1C(=O)C2C(c3ccc(-c4ccc5c(c4)OCO5)c(OC)c3)N[C@@](Cc3ccccc3)(C(=O)OC)C2C1=O (some centres undefined)	x	17	12	x	x	8	7.3
COc1cc(/C=C/C(=O)OCC(=O)N(C)C2CCS(=O)(=O)C2)ccc1OC(F)F (centres undefined)	5837	5	2	-5	-9	7	2.5
O=C(NC1CCCC1)c1cc2nc(-c3ccco3)cc(C(F)(F)F)n2n1	4013	7	7	7	-11	9	2.7
CN1C(=S)N(c2ccccc2)C(=O)/C1=C/c1ccco1	2171	5	-2	-7	-1	7	1.6
Cc1nc2cc(-c3ccccc3)ccc2o1	8336	1	4	7	-30	2	9.4
CC(C)C(=O)Nc1ccc(N2CCN(C)CC2)c(F)c1	2023	3	2	-6	-20	2	2.2
CCOc1ccc(-c2nnn(CC(=O)N3CCCC(C)C3)n2)cc1 (centres undefined)	2671	5	6	0	-17	13	1.7
Cc1nc(N2CCc3ccccc3C2)[nH]c(=O)c1Cc1ccccc1	4742	x	x	-2	-3	x	x
COc1ccc2cc(C(=O)N/N=C/c3sc4ccccc4c3O)ccc2c1	2973	x	x	-4	-11	x	x
Cc1ccc(NC(=O)C2=C(O)c3sccc3N(C)S2(=O)=O)cc1	4000	14	10	-2	-25	-7	13
COc1ccc2c(C=O)c[nH]c2c1	2677	5	3	-8	-13	2	3.8
Nc1ncc2c(n1)CC(c1ccco1)CC2=O (centres undefined)	3513	1	7	4	-11	3	6.0
COc1ccc(CNC(=O)CNC(=O)[C@@H]2Cc3ccccc3CN2)cc1	5689	9	1	3	-26	14	2.8
CCCc1nnc(NC(=O)Cn2cnc3ccccc3c2=O)s1	9504	0	4	11	-12	0	-1.9
Cc1ccc(C(c2nnnn2C(C)(C)C)N2CCN(C3CCCC3)CC2)cc1 (centres undefined)	4838	x	x	-1	-8	4	-1.2
O=C(NCc1cccnc1)C(=Cc1ccc(-c2ccc(Br)cc2)o1)S(=O)(=O)c1ccccc1	x	10	18	x	x	7	20
COc1ccc(/C(C)=N/NC(=O)c2nnn(-c3nonc3N)c2-c2ccccc2)cc1	3980	x	x	5	-3	x	x
O=C(Nc1cccnc1)c1cccc([N+](=O)[O-])c1	5212	5	0	-2	-31	7	1.5
C=CCn1cnc2c(NCc3ccccc3)ncnc21	3394	x	x	1	-23	-1	3.8
Cc1ccc(C(=O)N2CCN(c3ncccn3)CC2)o1	3149	6	14	-13	-9	-2	1.5
CCOc1ccc(N2Cc3ccccc3C2)cc1	9040	x	x	2	-114	x	x
O=C(c1ccc(-c2nc3ccccc3s2)o1)N1CCN(c2ccccc2O)CC1	5631	-13	4	4	-17	-21	1.5
COc1cccc(-c2nc(-c3cccs3)no2)c1	4591	5	6	8	-65	4	1.8
C#CCOCCOCCOCCNc1nc(N2CCN(C(=O)Cn3cc(CCO)nn3)CC2)nc(N2CCN(C(=O)[C@H]([C@@H](C)O)n3cc(CCCCN)nn3)CC2)n1	3590	x	x	5	-31	x	x
Cc1cc(C)nc(-n2ncc3c2CCCC3=O)n1	2592	-16	-11	1	-16	-1	1.9
COCCCN1C(=O)C(=O)/C(=C(/O)c2ccc(S(=O)(=O)N3CCCCC3)cc2)C1c1ccc(F)cc1 (centres undefined)	4160	-6	-9	-5	-5	12	6.2
CCOC(=O)c1oc2cccc(O)c2c1C	5806	12	12	3	-45	10	4.3
O=C(NCCN1CCOCC1)C1CC(=O)N(c2ccc(F)c(Cl)c2)C1 (centres undefined)	8223	15	3	-2	-39	2	2.1
Cc1nnc(SCC(=O)NC2CCCCC2)s1	2188	12	3	-2	-14	4	6.6
Remaining list, next part.
SMILES	Autofluor counter	Mtb hypoxia rep	Mtb hypoxia rep growth	BJeLR viability	PrP 5UTR inh	Sa ugtP lethal	Sa RN4220 lethal
O=C(Nc1cnn(Cc2ccc(F)cc2)c1)c1cnn2c(C(F)F)cc(-c3ccccc3)nc12	3557	-7	1	-7	-9	21	6.1
CCCCc1nnc(NC(=O)Cc2ccc(S(=O)(=O)N3CCOCC3)s2)s1	x	6	1	x	x	6	6.1
COCCN(C(=O)c1cc2c(s1)CCCCC2)c1c(N)n(CC(C)C)c(=O)[nH]c1=O	6430	-6	5	x	7	-1	0.6
CCCCC1(Br)C(=O)N(c2ccccc2)N(c2ccccc2)C1=O	u	11	9	x	-29	7	3.0
O=C(COC(=O)c1ccc[nH]c1=O)NC1CCCCCCC1	4443	12	4	11	-25	16	5.2
COC(=O)C1=C(c2cc3ccccc3s2)CC2CCC1N2C (centres undefined)	x	2	8	x	x	-8	1.4
COc1ccc(-c2c(C(F)(F)F)nn(C)c2NC(=O)c2ccco2)cc1	5901	-3	9	-5	5	-2	4.5
COc1ccc(/C=C2\N=C3CCCCCN3C2=O)cc1	2653	6	1	1	-27	-2	3.3

Of the compounds above, 5 contain a Cl atom.
SMILES	Autofluor counter	Mtb hypoxia rep	Mtb hypoxia rep growth	BJeLR viability	PrP 5UTR inh	Sa ugtP lethal	Sa RN4220 lethal
COC(=O)c1cc(NC(=S)NCc2ccc(Cl)cc2)cc(C(=O)OC)c1	2111	13	5	-12	-21	-27	-15
O=C(Cn1nnc(-c2ccccc2)n1)N/N=C/c1cc([N+](=O)[O-])c(Cl)cc1Cl	2114	x	x	-3	-9	x	x
CCn1c(C)c(Br)c(=O)c(C(=O)OC)c1-c1ccc(Cl)cc1	3472	5	11	-3	18	3	2.0
CCCNC(=O)COC(=O)c1ccccc1OCc1ccc(Cl)cc1	4247	2	5	-1	-3	7	1.4
O=C(NCCN1CCOCC1)C1CC(=O)N(c2ccc(F)c(Cl)c2)C1 (centres undefined)	8223	15	3	-2	-39	2	2.1
